# 2A StopGo – lowers the luciferase signal of an FMDV 2A StopGo reporter | human cells with a luciferase reporter of 2A StopGo recoding; control for the full effect not named in the record | Potency, µM (doses to about 57.9 µM), for the others: top-dose signal change, negative = less light | 410,000 compounds, 1.2% hits; active = well fitted falling curve with a large enough effect; inconclusive = small, poorly fitted or top-dose-only effect; inactive = no such curve, though single readings can be large or run the other way; tested in HEK293T cells; further: nearly all actives have a fitted effect of over 45% in size; luciferase light after 4 h
# Starred values were filed as active, the others as inactive; ? = inconclusive; & = joins results of further samples; [ ] = dose if it differs, or a comment. On the % scale 0 is the no-effect control and ±100 the full control effect; potency means the concentration at half of the fitted maximal effect. This is a subset; the hit share may differ from the screen's.
1. CCn1c(-c2ccccc2F)nc2cc(NC(C)=O)cc(C(=O)N3CCNC(=O)C3CC(=O)OC)c21 (stereo not drawn)
  2A StopGo: -14%

2. COc1ccccc1C(=O)Nc1cccc(N2CCC(NCc3cnn(-c4ccccc4)n3)CC2)c1
  2A StopGo: -19%

3. COc1cccc(C2(CC(=O)N3CCN(c4nonc4C)CC3)CC(=O)N(C3CCCC3)C2=O)c1 (stereo not drawn)
  2A StopGo: 32%[activator]

4. CO[C@H]1[C@H](NC(=O)c2ccco2)c2ccccc2C12CCN(Cc1cccn1-c1ccccn1)CC2
  2A StopGo: 1%

5. COc1cccc(C2(CC(=O)N3CCCOc4c(cccc4OC)C3)CC(=O)N(C)C2=O)c1 (stereo not drawn)
  2A StopGo: 1%

6. COC(=O)CNC(=O)c1cnn(-c2ncc3c(n2)-c2ccccc2CCC3)c1C1CC1
  2A StopGo: 48%[activator]

7. CCC1(C2CCN(Cc3ccoc3)CC2)NC(=O)N(CC2COc3ccccc3O2)C1=O (stereo not drawn)
  2A StopGo: -13%

8. Cc1ncc2c(c1CNC(=O)c1ccccc1F)CCN(C(=O)c1[nH]c3ccc(Cl)cc3c1C)C2
  2A StopGo: ?

9. CCOc1ccccc1Nc1nc(N2CCCC2)nc(N2CCOCC2)n1
  2A StopGo: -19%

10. COc1ccc(CN2CCC3(CC2)c2ccccc2[C@@H](NC(=O)c2ccsc2)[C@@H]3OC)cc1O
  2A StopGo: 2%

11. Cc1oc(-c2ccccc2NC(=O)c2ccccc2)nc1CNC(=O)c1c(-c2ccccc2)noc1C
  2A StopGo: 3%

12. Cc1c(C(=O)NCC2(N3CCCCC3)CCCC2)cnn1-c1nccc(-c2ccccc2F)n1
  2A StopGo: -7%

13. CCCN1CCN(C(=O)c2cnn(-c3ncc4c(n3)-c3ccccc3CCC4)c2COC)CC1
  2A StopGo: -12%

14. COC(=O)[C@@H]1CCCN1Cc1ccc2c(c1)CN(Cc1cccn1-c1ccccn1)CCO2
  2A StopGo: -10%

15. Cc1cc(-c2ccnc(-n3ncc(C(=O)N4CCCCC4c4cccnc4)c3C3CC3)n2)c(C)s1 (stereo not drawn)
  2A StopGo: 1%

16. Cc1ccc(CN2CCOc3ccc(C(C)(O)COc4ccccc4)cc3C2)o1 (stereo not drawn)
  2A StopGo: -9%

17. COC(=O)[C@@H]1CCCN1C(=O)c1c(OC)cc(=O)n2c1CCN(Cc1ccc3c(c1)OCCO3)CC2
  2A StopGo: -6%

18. OC1(c2ccc3c(c2)CN(Cc2nccs2)CCO3)CCN(c2ccccc2F)CC1
  2A StopGo: -15%

19. COc1ccccc1C(=O)N[C@@H]1c2ccccc2C2(CCN(Cc3ccc4c(c3)OCO4)CC2)[C@H]1O
  2A StopGo: ?

20. COc1cc(CNc2nc(C)c(-c3ccn(C4Cc5ccccc5C4)n3)s2)cc2c1OCO2
  2A StopGo: -15%

21. O=C(Nc1ccc([N+](=O)[O-])cc1O)Nc1ccccc1Br
  2A StopGo: -6%

22. COc1cc(O)ccc1CN1CCc2nnc(C(C)NC(=O)c3cc(F)ccc3F)n2CC1 (stereo not drawn)
  2A StopGo: -19%

23. COCC(=O)Nc1cc(C(=O)N2CCc3ccccc3C2)c2c(c1)nc(-c1ccncc1)n2C
  2A StopGo: -13%

24. Cc1c(P(=O)(c2ccccc2)c2ccccc2)c2ccccc2n1C
  2A StopGo: -27%

25. COc1cc(/C=C/CN2CCOc3ccc(C(O)c4cccnc4)cc3C2)ccc1O (stereo not drawn)
  2A StopGo: -16%

26. CO[C@H]1[C@H](NC(=O)c2cccc(F)c2)c2ccccc2C12CCN(Cc1ccco1)CC2
  2A StopGo: -6%

27. COc1ccc(CN2CCN(C(C)=O)CC2)cc1OC1CCN(C(=O)c2ccc3[nH]c(C)c(C)c3c2)CC1
  2A StopGo: -17%

28. Cc1c(CCCC(=O)O)sc(N)c1C(=O)c1cccc(C(F)(F)F)c1
  2A StopGo: -24%

29. COc1cc(OC)c2nc(-c3cc4c(c(OC)c3)OCCN(C(=O)CC3NC(=O)c5ccccc53)C4)cc(C)c2c1 (stereo not drawn)
  2A StopGo: -15%

30. COCc1c(C(=O)N2CCN(C3CCCCC3)CC2)cnn1-c1ncc(C)c(-c2cccs2)n1
  2A StopGo: -1%

31. COc1cccc(-c2nc3cc4c(cc3cc2CN(C(=O)c2cccs2)C2CC2)CCC4)c1OC
  2A StopGo: 32µM*

32. N=C(N)SCCN=C(N)N
  2A StopGo: -16%

33. CC(=O)Nc1ccccc1-c1nc(CNC(=O)c2ccc(F)c(F)c2)c(C)o1
  2A StopGo: -8%

34. O=C(c1cccc(F)c1)N(Cc1cc2cc3c(cc2nc1N1CCOCC1)CCC3)CC1CCCO1 (stereo not drawn)
  2A StopGo: -14%

35. CCOC(=O)C1=CC2(CC)CCCN3CCc4c(n1c1ccccc41)C32 (stereo not drawn)
  2A StopGo: 9%[97.4 µM]

36. CNc1ncnc2c1ncn2[C@H]1C[C@H](O)[C@@H](CO)O1
  2A StopGo: 3%

37. Cc1noc(C)c1CC(=O)NCC1Cc2cc(-c3cccc(OC(F)(F)F)c3)ccc2O1 (stereo not drawn)
  2A StopGo: -6%

38. O=C(NCC1Cc2cccc(-c3cnccn3)c2O1)C1COc2ccccc2O1 (stereo not drawn)
  2A StopGo: 0%

39. CC(C)C(NS(C)(=O)=O)c1nnc2n1CCN(Cc1ccc(C#CC(C)(C)O)cc1)CC2 (stereo not drawn)
  2A StopGo: 0%

40. COc1cc(CNc2nc(C)c(-c3ccn(CC4CCCN(C)C4)n3)s2)ccc1F (stereo not drawn)
  2A StopGo: 0%

41. COC(=O)[C@@H](c1ccccc1Cl)N1CCc2sccc2C1
  2A StopGo: -22%

42. C1=C(c2ccc3c(c2)CN(Cc2cccn2-c2ncccn2)CCO3)Cc2ccccc21
  2A StopGo: -10%

43. COc1ccccc1C1CN(Cc2cnn(C)c2C)Cc2ccccc2O1 (stereo not drawn)
  2A StopGo: -10%

44. Nc1ccnc2c1ncn2[C@@H]1O[C@H](CO)[C@@H](O)[C@H]1O
  2A StopGo: 7%

45. Clc1ccc(-c2nc3sccn3c2/C=N/OCc2ccc(Cl)c(Cl)c2)cc1
  2A StopGo: -1%&-4%

46. COc1ccccc1C1CN(Cc2cccc3nccnc23)Cc2ccccc2O1 (stereo not drawn)
  2A StopGo: -8%

47. O=C(NCC1Cc2cccc(-c3ccccn3)c2O1)c1cnn2cccnc12 (stereo not drawn)
  2A StopGo: 3%

48. CCOc1ccc2nc(N3CCCC3C(=O)N3CCC(c4nc5ccccc5o4)CC3)nc(C)c2c1 (stereo not drawn)
  2A StopGo: -6%

49. O=C(NCC1Cc2cccc(-c3cnccn3)c2O1)c1ccc(F)c(Cl)c1 (stereo not drawn)
  2A StopGo: -6%

50. COC(=O)c1ccccc1-c1cc(C)cc2c1OC(CNC(=O)c1cnc(C)cn1)C2 (stereo not drawn)
  2A StopGo: 15%

51. CN1CCCC(CNC(=O)c2cnn(-c3ncc4c(n3)-c3ccccc3CC4)c2C2CC2)C1 (stereo not drawn)
  2A StopGo: -10%

52. COc1cc(-c2cc(C)c3c(OC)ccc(OC)c3n2)cc2c1OCCN(C(=O)Cn1nc(C)cc1C)C2
  2A StopGo: 0%

53. COc1cc(C2=CCN(C(C)=O)CC2)ccc1OC(C)=O
  2A StopGo: 21%

54. CCn1nc(C)cc1C(=O)N1CCC2(CC1)c1ccccc1[C@@H](NC(=O)c1cccnc1)[C@@H]2O
  2A StopGo: -11%

55. COc1cc(=O)n2c(c1C(=O)N(C)Cc1nonc1C)CCN(C(=O)c1cc(C)cc(C)c1)CC2
  2A StopGo: 15%

56. N#CCCn1nc(Cc2cccc3ccccc23)c(C#N)c1N
  2A StopGo: -17%

57. O=C(CCN1Cc2ccccc2OC(c2ccccc2F)C1)N1CCC(N2CCCC(O)C2)CC1 (stereo not drawn)
  2A StopGo: 7%

58. CC(n1cc(C[C@H](N)C(=O)O)c2ccccc21)n1cc(C[C@H](N)C(=O)O)c2ccccc21
  2A StopGo: 2%

59. O=C(c1cccc(F)c1F)N1CCOc2ccc(CN3CCC(Oc4cccnc4)CC3)cc2C1
  2A StopGo: -19%

60. Cc1cccc(C(=O)NCc2nc(-c3ccccc3NC(=O)C3CCCO3)oc2C)c1 (stereo not drawn)
  2A StopGo: 5%

61. COc1cc(=O)n2c(c1C(=O)NCc1ccco1)CCN(Cc1ccc(F)cc1Cl)CC2
  2A StopGo: -3%

62. COc1ccc(Cl)cc1N1C(=O)[C@@H]2C[C@H]1CN2Cc1nc2ccccc2nc1C
  2A StopGo: 4%

63. Cc1csc(SCC(=O)NCC2Cc3cc(-c4cncnc4)ccc3O2)n1 (stereo not drawn)
  2A StopGo: 17%

64. COc1cccc(CNC(=O)c2c(OC)cc(=O)n3c2CCN(C(=O)c2ccc(C)s2)CC3)c1
  2A StopGo: -7%

65. Cc1ncc2c(c1CNC(=O)c1ccc3c(c1)OCO3)CCN(C(=O)c1cn3ccccc3n1)C2
  2A StopGo: -1%

66. Cc1cc(I)ccc1Nc1c(C(=O)NOCC2CC2)cc(F)c(F)c1F
  2A StopGo: ?

67. CCC1CN(CC(=O)NCc2ccc3c(c2)OCO3)Cc2ccc(Cl)cc2O1 (stereo not drawn)
  2A StopGo: -5%

68. COc1ccc(-c2nc(-c3ccc(C(=O)O)cc3)no2)cc1
  2A StopGo: -79%

69. COc1ccc(-c2[nH]ncc2CN2CCOc3c(cc(-c4cccc(OC)n4)cc3OC)C2)cc1
  2A StopGo: 0%

70. O=C(NCCN1Cc2ccccc2OC(c2ccccc2F)C1)c1ccco1 (stereo not drawn)
  2A StopGo: -12%

# Molecules shown so far with a COOH group (3):
28. Cc1c(CCCC(=O)O)sc(N)c1C(=O)c1cccc(C(F)(F)F)c1
  2A StopGo: -24%

58. CC(n1cc(C[C@H](N)C(=O)O)c2ccccc21)n1cc(C[C@H](N)C(=O)O)c2ccccc21
  2A StopGo: 2%

68. COc1ccc(-c2nc(-c3ccc(C(=O)O)cc3)no2)cc1
  2A StopGo: -79%

# Going on with the list.
71. NC(=O)N/N=C/c1ccc(Oc2ccc(F)cc2)cc1
  2A StopGo: -21%

72. CC(=O)C1CCC2C3CCC4CC(C)(O)CCC4(C)C3CCC12C (stereo not drawn)
  2A StopGo: 5%

73. N[C@]1(C(=O)O)CC[C@@H](C(=O)O)C1 (racemic)
  2A StopGo: -7%&-15%

74. Cn1c(SCC2CCCO2)nnc1C1CCN(Cc2ccco2)CC1 (stereo not drawn)
  2A StopGo: -2%

75. CC(C)C[C@@H](C=O)NC(=O)[C@H](CC(C)C)NC(=O)[C@H](CC(C)C)NC(=O)OCc1ccccc1
  2A StopGo: -17%

76. COc1ccccc1C1CN(CCNC(=O)c2cscn2)Cc2ccccc2O1 (stereo not drawn)
  2A StopGo: 7%

77. COc1ccccc1N1CCN(c2nc(CNC(=O)c3ccc(C)c(C)c3)nc3ccccc23)CC1
  2A StopGo: 2%

# Grouped by structure, those above containing sulfur.
10. COc1ccc(CN2CCC3(CC2)c2ccccc2[C@@H](NC(=O)c2ccsc2)[C@@H]3OC)cc1O
  2A StopGo: 2%

15. Cc1cc(-c2ccnc(-n3ncc(C(=O)N4CCCCC4c4cccnc4)c3C3CC3)n2)c(C)s1 (stereo not drawn)
  2A StopGo: 1%

18. OC1(c2ccc3c(c2)CN(Cc2nccs2)CCO3)CCN(c2ccccc2F)CC1
  2A StopGo: -15%

20. COc1cc(CNc2nc(C)c(-c3ccn(C4Cc5ccccc5C4)n3)s2)cc2c1OCO2
  2A StopGo: -15%

28. Cc1c(CCCC(=O)O)sc(N)c1C(=O)c1cccc(C(F)(F)F)c1
  2A StopGo: -24%

30. COCc1c(C(=O)N2CCN(C3CCCCC3)CC2)cnn1-c1ncc(C)c(-c2cccs2)n1
  2A StopGo: -1%

31. COc1cccc(-c2nc3cc4c(cc3cc2CN(C(=O)c2cccs2)C2CC2)CCC4)c1OC
  2A StopGo: 32µM*

32. N=C(N)SCCN=C(N)N
  2A StopGo: -16%

39. CC(C)C(NS(C)(=O)=O)c1nnc2n1CCN(Cc1ccc(C#CC(C)(C)O)cc1)CC2 (stereo not drawn)
  2A StopGo: 0%

40. COc1cc(CNc2nc(C)c(-c3ccn(CC4CCCN(C)C4)n3)s2)ccc1F (stereo not drawn)
  2A StopGo: 0%

41. COC(=O)[C@@H](c1ccccc1Cl)N1CCc2sccc2C1
  2A StopGo: -22%

45. Clc1ccc(-c2nc3sccn3c2/C=N/OCc2ccc(Cl)c(Cl)c2)cc1
  2A StopGo: -1%&-4%

63. Cc1csc(SCC(=O)NCC2Cc3cc(-c4cncnc4)ccc3O2)n1 (stereo not drawn)
  2A StopGo: 17%

64. COc1cccc(CNC(=O)c2c(OC)cc(=O)n3c2CCN(C(=O)c2ccc(C)s2)CC3)c1
  2A StopGo: -7%

74. Cn1c(SCC2CCCO2)nnc1C1CCN(Cc2ccco2)CC1 (stereo not drawn)
  2A StopGo: -2%

76. COc1ccccc1C1CN(CCNC(=O)c2cscn2)Cc2ccccc2O1 (stereo not drawn)
  2A StopGo: 7%

# High-throughput results as filed in PubChem.
